Compound activity: PubChem BioAssay, Broad Institute
Tgondii IFNg: blocks Toxoplasma gondii growth in the presence of IFN-gamma; Toxoplasma gondii growth in IFN-gamma-treated host cells; hits give low values; reference of the scale not given here; AID 1259416; activity change, negative = inhibition, %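 (about 20 µM by stock and volumes)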; actives 3.8% (n = 69,000);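 active means below -70%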;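 further: host cells are HeLa cells infected with Toxoplasma gondii; parasite growth read as luciferase light; one replicate is shown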
Numbers without * were called inactive; i = inactive.

SMILES	Tgondii IFNg
Cc1ccc2[nH]cc(CCN3CC(C(=O)NC4CCCCCC4)CC3=O)c2c1 (stereo not drawn)	88
CN1c2ccc(Br)cc2[C@@H]2[C@@H](CCN2C(=O)c2ccc(F)cc2)[C@@H]1CO	-17
Cc1nc(C(F)(F)F)ccc1C(=O)Nc1ccc(S(N)(=O)=O)cc1	-36
Cc1ccc(C2=NC3(CCN(Cc4cccc(Cl)c4)CC3)NC2=O)cc1C	51
Cc1nc(-c2ccccc2)sc1CCNC(=O)C(=O)Nc1ccccc1C#N	265
CN(C)S(=O)(=O)N1CC[C@@H]2C(=O)N(c3ccccc3)CCO[C@@H]2C1	-4
C=CCN1CCN(C)C2(CCN(Cc3cnn(C)c3)CC2)C1=O	36
O=C(c1cn2ccsc2n1)N1C[C@H]2C[C@H](O)[C@H](O)C[C@H]2C1	-5
CN1CCOCC12CCN(C(=O)Cc1ccsc1)CC2	i
CCOc1ncnc2c1CCN(c1cc(C(F)(F)F)ncn1)CC2	0
O=C(NCc1coc(-c2ccccc2)n1)c1cccc2ccnn12	-80*
S=C1SCN(CCc2ccccc2)CN1CCc1ccccc1	115
CCN(Cc1noc(CC(C)C)n1)C(=O)c1cnc2sc(C)c(C)n2c1=O	-15
N#C[C@@H]1[C@H](c2ccccc2-c2cccc(F)c2)[C@@H](CO)N1C(=O)c1cccnc1	-30
Cn1cnc2c1C(C(=O)O)CN(C(=O)c1ccc3c(c1)OCO3)C2 (stereo not drawn)	11
Cc1occc1C(=O)N1C[C@H]2COC[C@@H](CC(=O)N3CCOCC3)[C@H]2C1	-1
Cc1ccc(-c2cc3c(=O)n(Cc4nc(-c5ccccc5C)oc4C)ccn3n2)cc1	9
COc1ccc2c3c(n(C)c2c1)[C@@H](CO)N(Cc1cccnc1)CC31CN(C(=O)c2cccnc2)C1	9
CCn1cnc2sc(C(=O)Nc3cccc(CN4CCC(C)CC4)c3)c(C)c2c1=O	-1
COC(=O)c1sccc1NC(=O)c1ccc(Oc2cc(Cl)cc(Cl)c2)o1	5
COc1cccc(C(=O)NCCCn2ncc3ccccc32)c1C	-44
NC(=O)c1cccc(CC2CCN(C(=O)CCCn3cccn3)C2)c1 (stereo not drawn)	13
Cc1nc(N2CCCC2)nc2c1CCN(C(=O)c1cccn1C)CC2	14
CCN(CCN1CCCC1)Cc1nc[nH]c1C	5
Cc1ccc(S(=O)(=O)Nc2ccc3c(c2)C(=O)N(C)[C@@H]2CC[C@H](CC(=O)NCCc4ccncc4)O[C@H]2CO3)cc1	-13
(more compounds)
SMILES	Tgondii IFNg
CCc1cccc(NC(=O)c2c(O)c3cccnc3n(-c3ccc(F)cc3)c2=O)c1	-40
CN(C)C1CCCN(C(=O)CCCc2ccc(Cl)cc2)CC1 (stereo not drawn)	7
Cc1ccc(S(=O)(=O)N2CCC3(CC2)Nc2ccc(Cl)cc2-n2cccc23)c(C)c1	3
Cc1noc(C)c1NC(=O)N(C)C[C@@H]1Oc2ccc(NC(=O)Cc3cn(C)c4ccccc34)cc2CC(=O)N([C@H](C)CO)C[C@@H]1C	10
COc1cc(CN(Cc2ccc(C)o2)C2CC(C)(C)NC(C)(C)C2)ccc1OCC(N)=O	-14
COC(=O)c1cc(-c2nc(-c3ccc(Cl)cc3Cl)cs2)c(SC)s1	62
Cc1cc(N2CC(c3ccccn3)C2)nc(-c2ccccc2O)n1	-14
O=C(CN1C(=O)CNC1=O)NCc1cccnc1N1CCc2ccccc2C1	5
Cn1ccc(C(=O)N2CCC3(CC2)CC(Nc2ncccn2)CO3)n1 (stereo not drawn)	-4
Cc1cc(C)n(-c2nc3c(c(=O)n(C)c(=O)n3C)n2Cc2ccc(Cl)cc2Cl)n1	-11
CN1C(=O)c2cc(NS(C)(=O)=O)ccc2OC[C@H]2O[C@@H](CC(=O)N3CCOCC3)CC[C@@H]21	-1
COC(=O)C(c1cccc(C)c1)n1ccnc1-c1ccccc1C(=O)O (stereo not drawn)	2
CCc1cc(=O)oc2cc(OCc3nn[nH]n3)ccc12	-12
CCn1c(CC2CCNCC2)nn(CC2COc3ccccc3O2)c1=O (stereo not drawn)	2
CCOC(=O)c1noc2ncn(Cc3nc(-c4ccc(OC)cc4OC)oc3C)c(=O)c12	18
COc1cccc(-n2c(=O)c(C(=O)NCc3ccc(Cl)cc3)c(O)c3cccnc32)c1	266
Cc1noc(C)c1C1CCCN1Cc1cccn1-c1nccs1 (stereo not drawn)	8
CCc1cccc(NC(=O)Cn2c(=O)cc(C(=O)NC)c3ccccc32)c1	7
O=C(Nc1cccc(F)c1)N1CCCCN2[C@H](CO)[C@@H](c3ccc(C#Cc4cccnc4)cc3)[C@H]2C1	-62
CCO[C@H]1COC[C@@H]1NC(=O)c1ccc2c(c1)nnn2C	-12
CCCc1[nH]ncc1C(=O)N1CCCC(CCc2ccc(F)c(F)c2)C1 (stereo not drawn)	-2
CCn1nc(C)c(C(C)NC(=O)c2cc3ccccc3n2C)c1C (stereo not drawn)	8
COc1ccc(CN2CC3(CN(C(C)=O)C3)c3c(n(C)c4cc(OC)ccc34)[C@H]2CO)cc1	56
CN1CCN(Cc2ccccc2NC(=O)c2ccnn2C(F)F)CC1	-4
CO[C@@H]1CN(C)C(=O)c2cc(NC(=O)C3CCCCC3)ccc2OC[C@@H](C)N(Cc2cccnc2)C[C@H]1C	1
(list continues)
SMILES	Tgondii IFNg
O=C(Cn1ncc2c(N3CCCCCC3)ncnc21)NCc1ccc(F)cc1	-99*
Cc1ccsc1-c1nc(CN2CCN(c3cccc(C)c3C)CC2)c(C)o1	12
Cc1ccccc1CN(CCO)Cc1ncc[nH]1	-1
Cc1onc(C(C)C)c1C(=O)NCCn1ncc(-c2cnccn2)c1-c1cccs1	-1
C#CCN(Cc1nc(-c2cccc(OC)c2OC)oc1C)C1CCCCC1	-6
COc1ccc(C(=O)NC(Nc2ccc(S(N)(=O)=O)cc2)C(=O)c2ccccc2)cc1 (stereo not drawn)	17
CO[C@H]1CN(C)C(=O)c2cc(NC(=O)Cc3ccccc3)ccc2OC[C@@H](C)N(C(=O)c2ccccc2F)C[C@@H]1C	10
CS(=O)(=O)N1CCN(Cc2cccnc2)CC(C(=O)O)C1 (stereo not drawn)	44
CCn1ncnc1CN1CCCC(CNC(=O)C=C(C)C)C1 (stereo not drawn)	-23
COC(=O)c1cccc(C2CC(=O)Nc3c2cnn3-c2ccccc2)n1 (stereo not drawn)	9
COc1ccc(CNC(=O)C[C@H]2CC[C@@H](NC(=O)CN(C)C)[C@H](CO)O2)cc1	-45
CCc1ccccc1S(=O)(=O)NCC(c1cccnc1)c1cn(C)c2ccccc12 (stereo not drawn)	-83*
CC(C)CC#Cc1ccc([C@H]2[C@@H](CO)N3CCCCN(C(=O)Nc4ccccc4)C[C@@H]23)cc1	-62
CCOC(=O)c1cc(C)nc2c1c(=O)n(Cc1nc(-c3ccccc3Cl)oc1C)c(=O)n2C	-24
COCC1COCCC12CCN(C(=O)C1CC(F)(F)C1)CC2 (stereo not drawn)	4
CCOC(=O)c1cnc(SCC(=O)Nc2nnc(CC)s2)nc1N	-54
c1nc(-c2cc(NC3CCCC3)nc3[nH]ccc23)cc(N2CCOCC2)n1	-6
COc1ccc(-c2nc(-c3cc4cc(Br)ccc4oc3=O)cs2)cc1	5
CCS(=O)(=O)N1C[C@@H]2COC[C@@]2(Cc2nnc(C3CC3)o2)C1	-8
COC(=O)c1cn(C(=O)CCc2ccccc2)c2ccccc12	17
c1coc(CCn2ccnc2-c2ccc(-n3cccn3)cc2)c1	-8
O=C(c1cccc(-n2cnnc2)n1)N1CCc2[nH]nc(-c3ccccc3)c2C1	3
Cc1nnc(N2CCC(C3CCCCN3S(C)(=O)=O)CC2)c2ccccc12 (stereo not drawn)	-2
CC(C)N(C)CC1CCC2(CCN(C(=O)c3ccccc3)CC2)CO1 (stereo not drawn)	-20
Cc1oc(-c2ccc(OC(C)C)cc2)nc1Cn1ccn2nc(-c3ccc4c(c3)OCO4)cc2c1=O	24

Two of these compounds, set out differently:
canonical_smiles: CCc1cccc(NC(=O)Cn2c(=O)cc(C(=O)NC)c3ccccc32)c1
  Tgondii IFNg: 7
canonical_smiles: O=C(Nc1cccc(F)c1)N1CCCCN2[C@H](CO)[C@@H](c3ccc(C#Cc4cccnc4)cc3)[C@H]2C1
  Tgondii IFNg: -62

Other records:
SMILES	Tgondii IFNg
COc1ccccc1-c1noc(CCC(=O)Nc2nnc(C)s2)n1	26
COCC1CN(C(=O)C2=CCCC2)Cc2cnn(C)c21 (stereo not drawn)	-34
Nc1sc(=S)nc2sc3c(c12)CCC3	39
CN(C)CC1(O)CCCN(S(=O)(=O)c2ccc(C(F)(F)F)cc2)CC1 (stereo not drawn)	-14
O=C1CC(c2cc(F)ccc2-n2cccn2)c2cc3cn[nH]c3cc2N1 (stereo not drawn)	-14
COc1ccc(OCC(=O)NCCc2sc(-c3ccc(Cl)cc3)nc2C)cc1	30
CNc1cc(-c2cccc(C(F)(F)F)n2)c2cc[nH]c2n1	25
Cc1cccc(S(=O)(=O)N2C[C@@H]3[C@H](c4ccccc42)[C@@H](CO)N3CC2CCCC2)c1	23
O=C(O)[C@H](Cc1ccccc1)NC(=O)N1CCC(Cc2ccccc2)CC1	12
CCCC(=O)N1CCC2(CC1)Nc1ccccc1NC2=O	281
COc1ccc(NC(=O)Nc2cc(C)cc(C)c2)cn1	-37
CN1CCn2nc(C(=O)NCC3CC(=O)N(C4CCCC4)C3)cc2C1 (stereo not drawn)	22
Cn1cnc(-c2cc(C(=O)C3CC3)c3ccccn23)c1	3
O=S(=O)(Nc1ccccc1N1CCOCC1)c1cc(Cl)sc1Cl	-85*
Cc1nc(-c2cc(C(=O)NCC(C)(C)CO)c3ccccn23)cn1-c1ccccn1	30
COc1ccc(CNC(=O)C2CCCN(c3cc(C)nc4ncnn34)C2)cc1 (stereo not drawn)	-7
Cn1nc2c(c1C(=O)NCc1n[nH]c3c1CCC3)CCCC2	-47
CC(C)(C)NS(=O)(=O)c1cncc(-c2cc(F)c3nc(N)nn3c2)c1	7
Cn1cc(CN2Cc3ncn(C)c3C(C(=O)O)C2)cn1 (stereo not drawn)	7
Cn1ccnc1CN1CCC2(COCCN(C(=O)c3ccoc3)C2)C1 (stereo not drawn)	0
Cc1c(Br)c(C(F)(F)F)nn1CC(=O)Nc1cc(O)cc([N+](=O)[O-])c1	-1
Cc1oc(-c2ccc(C(=O)NCCCN3CCCC3=O)cc2)nc1CN1CCc2ccccc21	162
CC(C)Nc1ccc2c(c1)C1(CCOCC1)C(=O)N2c1ccsc1	-2
CS(=O)(=O)N1CC2(CCN(C(=O)[C@H]3CCCO3)CC2)c2ccccc21	357
O=C(c1n[nH]c2c1CCN(Cc1cccnc1)C2)N1CCCC1	-1
Carrying on:
SMILES	Tgondii IFNg
O=C(C[C@@H]1CC[C@H]2[C@@H](COC[C@H](O)CN2Cc2cc(F)cc(F)c2)O1)Nc1nccs1	-45
CCC(=O)N[C@H]1CC[C@@H](CC(=O)NCc2ccccc2F)O[C@H]1CO	16
Cc1noc(C)c1NC(=O)N[C@H]1C=C[C@@H](CC(=O)Nc2ccc(-c3ccccc3)cc2)O[C@H]1CO	-25
COc1ccc(NC(=O)Cn2c(=O)ccc3cc(S(=O)(=O)N4CCC(C)CC4)ccc32)cc1	-39
Cn1cccc1CN1C[C@H]2CN(Cc3cccc(F)c3)C(=O)[C@@H]2C1	-1
COc1ccc(CC2CN(C(=O)c3cc4cccc(C)c4o3)CCO2)cc1 (stereo not drawn)	-48
CC(C)CC(c1nnnn1Cc1ccc2c(c1)OCO2)N1CCC(C(N)=O)CC1 (stereo not drawn)	-50
Cc1ccc(C(=O)N2CCCC(Cn3cc(-c4ccccn4)nn3)C2)cc1C (stereo not drawn)	12
C=Cc1c(SC)sc(C(N)=O)c1C	42
O=C(NCc1cc(C2CC2)on1)c1cn(CC2CCCNC2)nn1 (stereo not drawn)	-41
CCOCC1c2c(cnn2CC2CC2)CCN1C(=O)c1cccn1C (stereo not drawn)	-4
Cc1cc(C)n(CC(O)Cn2c3ccc(Cl)cc3c3cc(Cl)ccc32)n1 (stereo not drawn)	-36
CNC[C@H]1Oc2ccc(NC(=O)NC3CCCCC3)cc2CC(=O)N([C@@H](C)CO)C[C@@H]1C	-21
Cc1nc(CNC(=O)c2ccc(-c3ccccc3)[nH]2)cs1	169
Cc1cc(C(=O)N2CC[C@H]3[C@@H]2CCN3CC2CCOCC2)c(C)o1	110
Cc1ccoc1C(=O)N1Cc2nccn2CC(Cn2cncn2)C1 (stereo not drawn)	-4

Entries above containing an aryl methoxy group, in the order listed:
SMILES	Tgondii IFNg
COc1ccc2c3c(n(C)c2c1)[C@@H](CO)N(Cc1cccnc1)CC31CN(C(=O)c2cccnc2)C1	9
COc1cccc(C(=O)NCCCn2ncc3ccccc32)c1C	-44
COc1cc(CN(Cc2ccc(C)o2)C2CC(C)(C)NC(C)(C)C2)ccc1OCC(N)=O	-14
CCOC(=O)c1noc2ncn(Cc3nc(-c4ccc(OC)cc4OC)oc3C)c(=O)c12	18
COc1cccc(-n2c(=O)c(C(=O)NCc3ccc(Cl)cc3)c(O)c3cccnc32)c1	266
COc1ccc(CN2CC3(CN(C(C)=O)C3)c3c(n(C)c4cc(OC)ccc34)[C@H]2CO)cc1	56
C#CCN(Cc1nc(-c2cccc(OC)c2OC)oc1C)C1CCCCC1	-6
COc1ccc(C(=O)NC(Nc2ccc(S(N)(=O)=O)cc2)C(=O)c2ccccc2)cc1 (stereo not drawn)	17
COc1ccc(CNC(=O)C[C@H]2CC[C@@H](NC(=O)CN(C)C)[C@H](CO)O2)cc1	-45
COc1ccc(-c2nc(-c3cc4cc(Br)ccc4oc3=O)cs2)cc1	5
COc1ccccc1-c1noc(CCC(=O)Nc2nnc(C)s2)n1	26
COc1ccc(OCC(=O)NCCc2sc(-c3ccc(Cl)cc3)nc2C)cc1	30
COc1ccc(NC(=O)Nc2cc(C)cc(C)c2)cn1	-37
COc1ccc(CNC(=O)C2CCCN(c3cc(C)nc4ncnn34)C2)cc1 (stereo not drawn)	-7
COc1ccc(NC(=O)Cn2c(=O)ccc3cc(S(=O)(=O)N4CCC(C)CC4)ccc32)cc1	-39
COc1ccc(CC2CN(C(=O)c3cc4cccc(C)c4o3)CCO2)cc1 (stereo not drawn)	-48

A portion of the library; the hit share may differ from the screen's.
